# From PubChem BioAssay
# H5N1 CPE – MDCK cell protection from H5N1 avian flu; cytopathic effect, luminescence, 72 h; hits give high values; no value below 0 was filed and about half of the inactive calls have no number; reference of the scale not given here; 96,000 compounds, 0.07% hits; inhibition, % at 50 µM; in the data active means inhibition above about 25%
# Numbers without * were called inactive; i = inactive. These rows are one share of the data; the hit share may differ from the screen's.
SMILES,H5N1 CPE
CCCCOc1ccc(C2CC(=O)N(C)C2=O)cc1 (stereo not drawn),0.2
COc1ccc(CNS(=O)(=O)c2cccc(S(=O)(=O)N3CCOCC3)c2)cc1,0.7
Cc1ccc(S(=O)(=O)Cc2ccc(C(=O)NCc3cccs3)o2)cc1,i
COc1ccccc1NC(=O)Cn1cnc2sc(C(=O)NCc3ccco3)c(C)c2c1=O,0.1
O=C1CC(N2CCC(c3nc4ccccc4o3)CC2)C(=O)N1Cc1cccs1 (stereo not drawn),0.0
COc1ccc(Cl)c(N2CCN(CCCNC(=O)Nc3ccc(C)cc3)CC2)c1,i
CCN1C2=C(C(=O)CCC2)C(c2ccc(O)cc2)C2=C1CCCC2=O,i
CCOC(=O)C(Sc1cc(C)nc(N)n1)C(C)=O (stereo not drawn),0.3
O=C1c2ccccc2C(=O)N1CCSC(=S)N1CCOCC1,0.6
CCCCc1oc2c(c(=O)c1C)C(=O)CC(c1ccccc1)C2 (stereo not drawn),0.2

# Brought forward from above: 5 entries, then new ones.
SMILES,H5N1 CPE
COc1ccc(Cl)c(N2CCN(CCCNC(=O)Nc3ccc(C)cc3)CC2)c1,i
CCN1C2=C(C(=O)CCC2)C(c2ccc(O)cc2)C2=C1CCCC2=O,i
CCOC(=O)C(Sc1cc(C)nc(N)n1)C(C)=O (stereo not drawn),0.3
O=C1c2ccccc2C(=O)N1CCSC(=S)N1CCOCC1,0.6
CCCCc1oc2c(c(=O)c1C)C(=O)CC(c1ccccc1)C2 (stereo not drawn),0.2
N#Cc1cccc(NC(=O)CSc2ccccc2)c1,i
CCC1(C)Cc2c(sc3nnn(CC(=O)Nc4ccc(Cl)cc4)c(=O)c23)CO1 (stereo not drawn),i
CCN(CC)CCCNC(=O)C1CCN(C(=O)c2cc3sccc3n2Cc2ccc(F)cc2)CC1,i
CCCCCNc1c(C(=O)OCC)c(=O)[nH]c2ccccc12,0.9
Cc1c(C#N)c2ncn(CCCN(C)C)c(=O)c2n1-c1ccccc1,0.3
CCOC(=O)c1[nH]c(C)c(/C(O)=C2\C(=O)C(=O)N(CCN3CCOCC3)C2c2cccs2)c1C (stereo not drawn),0.7
CCN1C(=O)c2cccc3c(S(=O)(=O)Nc4ncccc4C)ccc1c23,0.3
CCN1CC2(COC(=O)c3ccccc3N)CCC(OC)C34C5CC6C(OC)CC(O)(C5C6OC)C(O)(C(OC)C23)C14 (stereo not drawn),2.2
Cc1cccc(OCc2nc(-c3ccc(-n4cccc4)cc3)no2)c1,i
COc1cc2c(cc1NC(=S)Nc1cccc3ccccc13)oc1ccccc12,i
CCc1c(O)nc(SCC(=O)Nc2ccccc2)n(C(C)CC)c1=O (stereo not drawn),0.2
Cc1ccc(N2CC(C(=O)N3CCc4ccccc4C3)CC2=O)cc1 (stereo not drawn),1.2
CCOC(=O)C1CCN(C(c2cccs2)c2sc3nc(C)nn3c2O)CC1 (stereo not drawn),i
Cn1c(=O)cc(OCCCC(=O)Nc2cccnc2)c2ccccc21,1.8
Cc1ccc(NC(=O)c2cc(S(=O)(=O)N3CCC4(CC3)OCCO4)ccc2F)cc1,0.3
Cc1cc(N2CCC(C(=O)Nc3ccc(F)cc3)CC2)nc(-c2ccccc2)n1,i
COCCCNC(=O)c1ccccc1SC,i
Cc1nn(-c2ccccc2)c2sc(C(=O)NC3CC3)cc12,i
CC1Cc2ccccc2N1S(=O)(=O)c1cccc(C(=O)c2nccn2C)c1 (stereo not drawn),1.1
COc1ccc(C(=O)Nc2ccc(Cl)c(Cl)c2)c(OC)n1,i

# In a second layout: 3 of the compounds above
compound	H5N1 CPE
Cc1nn(-c2ccccc2)c2sc(C(=O)NC3CC3)cc12	i
CC1Cc2ccccc2N1S(=O)(=O)c1cccc(C(=O)c2nccn2C)c1 (stereo not drawn)	1.1
COc1ccc(C(=O)Nc2ccc(Cl)c(Cl)c2)c(OC)n1	i

# (more compounds)
SMILES,H5N1 CPE
CCc1cccc(CC)c1N(COC)C(=O)Cn1c(C(C)O)nc2ccccc21 (stereo not drawn),i
Cc1[nH]c(=O)c(C(=O)/C=C/c2ccccc2)c2c1CCCC2,16
Cc1cccc(C)c1NC(=O)C1CCCN(CCCc2ccccc2)C1 (stereo not drawn),0.0
O=C(O)CSc1nnc(Cc2ccccc2)n1Cc1ccccc1,0.5
O=C(NCCCN1CCCC1=O)c1cccnc1,i
CS(=O)(=O)N(CC(=O)N1CCC(C(N)=O)CC1)c1ccc(Cl)c(C(F)(F)F)c1,0.2
COc1cc(CNn2c(C)n[nH]c2=S)cc(Cl)c1OCc1ccc(F)cc1,i
CCOCC(=O)Nc1c(C(=O)Nc2ccc(OC)cc2OC)oc2ccccc12,0.4
O=C(NCc1ccc2c(c1)OCO2)c1ccc(N2C(=O)C3CCCCC3C2=O)cc1 (stereo not drawn),0.8
CC1(C)CC(NC(=O)CC2CCCCC2)CC(C)(C)N1,i

# Reformatted: entries from further up
CC1(C)CC(NC(=O)CC2CCCCC2)CC(C)(C)N1
  H5N1 CPE = i
Cc1[nH]c(=O)c(C(=O)/C=C/c2ccccc2)c2c1CCCC2
  H5N1 CPE = 16
O=C(O)CSc1nnc(Cc2ccccc2)n1Cc1ccccc1
  H5N1 CPE = 0.5

# Other compounds follow.
SMILES,H5N1 CPE
Cc1ccc(C)c(S(=O)(=O)N2CCN(C(=O)Cn3c(C(F)(F)F)nc4ccccc43)CC2)c1,i
Cc1cc(N2CCN(C)CC2)nc2ccc(NC(=O)c3ccc(Br)o3)cc12,i
CC1CCCCN1c1nc(-c2ccncc2)nc2ccccc12 (stereo not drawn),1.1
Cn1c(COc2ccccc2)nnc1SCC(=O)Nc1ccc(N2CCOCC2)c(Cl)c1,i
Cc1ccc(S(=O)(=O)N/N=C\c2ccc3c(c2)OCO3)cc1,0.1
COc1cc2c(cc1OC)CN(Cc1cccs1)CC2,i
COc1ccc(N2C(=O)/C(=C/c3ccc([N+](=O)[O-])cc3)C=C2c2ccccc2)cc1,i
Cc1cccc(C)c1NC(=S)NN1CCN(C)CC1,1.1
CCOC(=O)N1CCC(NC(=O)CCC(=O)N2CC(C)Oc3ccc(Cl)cc32)CC1 (stereo not drawn),i
C=CCOc1ccc2cccc(/C=N/NC(=O)c3cc4cc([N+](=O)[O-])ccc4s3)c2c1,0.8
COc1cc(OC)cc(-c2nnc(Nc3nc4c(F)cccc4s3)o2)c1,i
O=C(CCc1nc(-c2ccccc2F)no1)Nc1ccc(Oc2ccccc2)cc1,i
COc1ccccc1NC(=O)C1CCCCN1S(=O)(=O)c1ccc(F)cc1 (stereo not drawn),1.4
CCOC(=O)C1=C(C)Nc2nc(SCc3cccnc3)nn2C1c1ccc(OC)cc1 (stereo not drawn),0.7
O=C(CSc1nnc(-c2ccccc2)o1)NCC1CCCCC1,0.2
COc1ccc(S(=O)(=O)c2ccc(O)cc2)cc1,i
O=C(NCc1ccco1)C12CN(Cc3ccccc3)CC1C(c1cccc([N+](=O)[O-])c1)=NO2 (stereo not drawn),0.7
Cc1cc(C(=O)Nc2ccccc2C(F)(F)F)no1,0.4
O=c1[nH]c2cc3c(cc2cc1C(c1nnnn1CC1CCCO1)N1CCCCCC1)OCO3 (stereo not drawn),i
O=C(O)CCCC(=O)Nc1ccccc1C(=O)O,i
CCSc1ccccc1C(=O)NCc1ccc(S(N)(=O)=O)cc1,i
C=CCn1c(SCC(=O)Nc2ccc3c(c2)OCCO3)nnc1-c1ccccn1,0.0
COc1ccc(C2=NCC(CSc3nnnn3C)S2)cc1 (stereo not drawn),i
CCCCN1c2cc(C)c(O)cc2C(C(=O)OCC)C1C (stereo not drawn),1.4
COC(=O)Cn1cnc2c(nnn2Cc2ccc(Cl)cc2)c1=O,2.1
O=C(CN(Cc1ccco1)S(=O)(=O)c1cccs1)Nc1ccccc1C(F)(F)F,i
O=C1CCCCC(=O)c2ccccc2N1,0.4
CCN1CCN(C(=O)CCCn2c(C)c3cnn(-c4ccccc4)c(=O)c3c2C)CC1,0.4
COCCNC(=O)CN(c1cccc(OC)c1)S(=O)(=O)c1ccc(C)cc1,i
COc1ccc(NC(=O)C2CCCN(S(=O)(=O)c3cccs3)C2)cc1OC (stereo not drawn),0.3
O=C(Nc1ccc(F)cc1F)c1ccc(-n2cncn2)nc1,i
O=C1c2ccccc2C(=O)N1CC(=O)N1c2ccccc2Sc2ccccc21,i
CC1CC(C)CN(C(=O)c2cc(-c3ccccn3)nc3ccccc23)C1 (stereo not drawn),i
CC(C)C[C@H](NC(=O)Nc1ccccc1F)C(=O)O,i
Cc1ccc(-n2c(SCC(=O)NCc3cccs3)nnc2-c2ccoc2C)cc1,i
O=C1OC(c2cccs2)=N/C1=C\c1ccc(-c2cccc(Cl)c2)o1,i
CCN(CC)S(=O)(=O)c1ccc2c(c1)c(=O)c(C(=O)NCCCN(C)c1ccccc1)cn2C,0.3
Cc1c(C(=O)Nc2ccc(F)cc2)oc2ccc(S(=O)(=O)N3CCC4(CC3)OCCO4)cc12,2.5
CCCCOC(=O)c1ccc(NC(=O)c2ocnc2C)cc1,i
COc1ccc(-c2cc(C3CCN(c4cc(Cl)nc(N)n4)CC3)[nH]n2)cc1,i
CC(NC(=O)OC(C)(C)C)C(=O)Oc1cc2oc(=O)cc(-c3ccccc3)c2cc1Cl (stereo not drawn),i
COc1ccccc1CN(C)C(=O)c1ccc2c(c1)NC(=O)CS2,1.7
COc1cccc(C(=O)N(c2ccc(OC)cc2OC)C2C=CS(=O)(=O)C2)c1 (stereo not drawn),2.8
COC(=O)c1ccccc1NC(=O)c1ccccc1NS(C)(=O)=O,0.1
Cc1ccc(C(=O)NNC(=O)CSc2nnc3c(n2)[nH]c2ccc(F)cc23)cc1,i
Cn1c(NC(=O)c2cccc(C(F)(F)F)c2)cc(=O)n(C)c1=O,i
Cc1nc(=O)c(-c2ccccc2)c(C)n1-c1ccc(C(=O)O)cc1,1.2
COc1ccccc1CCNC(=O)c1cnn2c(C(F)F)cc(C)nc12,0.2
O=C(NC1CCCCC1)N1CCC(c2nc3ccccc3[nH]2)CC1,i
C=CCNC(=S)NNC(=O)c1cccc2ccccc12,i

# (continued)
SMILES,H5N1 CPE
Cc1ccc(C(=O)Nc2c(C#N)c(C)c(C)n2Cc2ccccc2)cc1,i
O=C(CN1CCOCC1)Nc1ccc(S(=O)(=O)N2CCCCCC2)cc1,i
CC(C)[C@H](NC(=O)NCc1ccco1)C(=O)O,i
O=C(CSc1nc2cc(Cl)ccc2s1)NC(=O)NCc1ccco1,i
CC1CCCCC1NC(=O)c1ccc(CNc2c(N3CCCC3)c(=O)c2=O)cc1 (stereo not drawn),i
Cc1cccc(C)c1N1C(=O)c2ccccc2C1=O,i
O=C(Nc1nc2c(Cl)ccc(Cl)c2s1)c1ccco1,i
CCn1c(SCC(=O)Nc2cccc(NC(=O)c3cccs3)c2)nnc1-c1ccncc1,1.2
O=C(c1ccco1)N1CCN(C2CCCC2)CC1,0.4
CC1CCCCN1C(=O)CSc1nnc(-c2ccc(Cl)s2)o1 (stereo not drawn),2.2
COc1ccccc1CN(Cc1cc2cc(C)ccc2[nH]c1=O)Cc1nnnn1Cc1ccco1,0.8
CCC(Sc1ncccc1C(=O)OC(C)C)C(=O)NCc1ccco1 (stereo not drawn),0.7
CCOC(=O)c1cc(CN2CCOCC2)oc1-c1ccccc1,1.4
CC(=O)NC1(C(F)(F)F)NC(=O)N(C2CCCCC2)C1=O (stereo not drawn),i
Cc1cc2nc(CCN(C(=S)NCC(C)C)C3CCCC3)[nH]c2cc1C,5.5
COc1cccc(CNC2CCCC2)c1,i
CCCc1cc(=O)oc2cc(C)cc(O)c12,0.1
Cc1cc(C)n(CC(O)COc2ccccc2)n1 (stereo not drawn),i
Cc1ccc(NC(=O)CSCC(N)=O)cc1C,i
O=C(c1cccc(Cl)c1)N1CCCC(c2ccc(Cl)cc2)=N1,3.7
O=C(CCCn1nnc(-c2cccnc2)n1)c1ccc(F)cc1,i
Cc1ccc(S(=O)(=O)N(Cc2ccc(F)cc2)Cc2ccco2)cc1,0.1
Cc1ccccc1C(=O)O/N=C(\N)c1cccc([N+](=O)[O-])c1,i
CC1=NN(C(=O)Cc2ccccc2)C(O)(c2cccnc2)C1 (stereo not drawn),0.1
CN(c1ccccc1)S(=O)(=O)c1ccc(NC(=O)c2ccc(-c3ccccc3)cc2)cc1,i
COc1ccccc1CNC(=O)c1ccccc1N(C)S(C)(=O)=O,i
C=CCSc1nnc(-c2cc3c(s2)-c2ccccc2CC3)o1,0.5
COc1cccc(OCCc2c(C)n[nH]c2C)c1,i
Cc1ccc(Nc2oc(C)nc2C#N)cc1,i
COc1ccc(-c2ccc(CCC(=O)O)n2CC(C)C)cc1,1.8

# Sorted by heavy-atom count (high to low): some entries from above.
SMILES,H5N1 CPE
CN(c1ccccc1)S(=O)(=O)c1ccc(NC(=O)c2ccc(-c3ccccc3)cc2)cc1,i
CC1CCCCN1C(=O)CSc1nnc(-c2ccc(Cl)s2)o1 (stereo not drawn),2.2
Cc1ccc(NC(=O)CSCC(N)=O)cc1C,i

# Further entries
SMILES,H5N1 CPE
O=[N+]([O-])c1ccc(-n2nncc2-c2ccc(Cl)cc2)cc1,i
Cc1ccc(CNC(=O)CN(C)S(=O)(=O)c2cccc3cccnc23)cc1,0.8
O=C(Cn1nnc(-c2ccncc2)n1)N1CCc2ccccc21,i
CCOCCc1nnc(NC(=O)c2ccc(OC)c(OC)c2)s1,i
COc1ccc(C2=NOC3(CC(=O)N(c4ccc(F)cc4)C3=O)C2)c(OC)c1 (stereo not drawn),i
Cc1nn(Cc2ccc(C(=O)NC3CCCCC3)o2)c(C)c1Br,i
CN(c1ccccc1)S(=O)(=O)c1cc(C(=O)N2CCN(c3ccccn3)CC2)ccc1Cl,0.0
COc1ccc(NC(=O)Cn2nnc(-c3ccccc3F)n2)cc1,1.6
COC(=O)C1=C(C(=O)c2ccc(C)cc2)C(c2ccc(O)c(OC)c2)n2nnnc2N1 (stereo not drawn),1.8
O=C(COc1ncnc2cc([N+](=O)[O-])ccc12)NCc1ccc2c(c1)OCO2,0.6
